# CSC inhib = blocks cancer stem cells; inhibition, % at 7.5 µM; 300,000 tested, 1.1% active; AID 2717; cancer stem cell-like cells viability, luminescence;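 active = mean at 75% or more and at least half the replicates too; tested in HMLE shEcad cells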;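 also: 0% = median of negative and 100% = median of positive control wells; the first replicate is given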
# HIV Env fusion = blocks HIV Env-driven cell-cell fusion; inhibition, % at 12.3 µM; HeLa-JRFL Env/CEM21 cell fusion, luciferase; 360,000 tested, 1.1% active; AID 651610;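 active = mean replicate inhibition score of at least 50 and every replicate individually at or above 50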;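 also: 0% = plate neutral controls and 100% = maraviroc near 300 nM; one replicate is shown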
# UUG fidelity = yeast start codon fidelity modulation; S. cerevisiae UUG-firefly luciferase reporter, luminescence/redox ratio; activity score, % at 18.7 µM; 350,000 tested, 0.13% active; AID 602363;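 active = replicate mean at a twofold rise or more, about +100% in these data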;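 also: firefly luciferase made from a UUG start codon reports start codon fidelity; reporter light over untreated wells divided by growth signal over untreated wells; some hits fall short of that in this replicate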
# eIF4H inh = inhibitors of RNA binding by human eIF4H. Q15056. eIF4H fluorescence polarization binding assay. inhibition, % at 35 µM. 290,000 tested, 0.94% active. AID 2012;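 active = 50% or more with normal probe brightness, or confirmed in later tests; about a fifth of its hits are not listed in these tables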;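 also: calls also rest on retests at 20 µM and on dose response follow-up; 0% = protein and probe with vehicle and 100% = probe without protein; strong numbers were not always called active; many hits fall short of the cut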
# MT1-MMP act inh = blocks activation of human MT1-MMP | 360,000 tested, 0.061% active | HT1080 RFP-PRO-GFP cells, GFP/RFP ratio fluorescence, overnight; percent of plate control window, DMSO zero | P50281 | AID 651647 | GFP/RFP ratio change, % at 20 µM;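 active = GFP/RFP ratio change of at least 30% with cell ATP level not reduced by more than half and red fluorescence within 50% of control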; also: strong numbers were not always called active
#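 Assay system: HT1080 RFP-PRO-GFP cells | Dosing: 20 µM single dose, 1% DMSO | Incubation: Cells overnight before dosing, compound overnight, 37 °C, 5% CO2 | Evaluation: GFP/RFP fluorescence ratio | Control set: DMSO-only wells and HT1080 RFP-L50D-GFP cell wells as references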
# PABP FP inh = blocks human PABP binding to poly(A) RNA | P11940 | fluorescence polarization | inhibition, % at 35 µM | 290,000 tested, 1% active;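 active = 50% or more with normal probe brightness, or confirmed in later tests; about a fifth of its hits are not listed in these tables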;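 also: calls also rest on retests at 20 µM and on dose response follow-up; controls were probe without protein and protein plus probe with vehicle; some compounds called inactive have numbers as strong as hits; many hits fall short of the cut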
# Target sequence (P11940 whole entry, looked up): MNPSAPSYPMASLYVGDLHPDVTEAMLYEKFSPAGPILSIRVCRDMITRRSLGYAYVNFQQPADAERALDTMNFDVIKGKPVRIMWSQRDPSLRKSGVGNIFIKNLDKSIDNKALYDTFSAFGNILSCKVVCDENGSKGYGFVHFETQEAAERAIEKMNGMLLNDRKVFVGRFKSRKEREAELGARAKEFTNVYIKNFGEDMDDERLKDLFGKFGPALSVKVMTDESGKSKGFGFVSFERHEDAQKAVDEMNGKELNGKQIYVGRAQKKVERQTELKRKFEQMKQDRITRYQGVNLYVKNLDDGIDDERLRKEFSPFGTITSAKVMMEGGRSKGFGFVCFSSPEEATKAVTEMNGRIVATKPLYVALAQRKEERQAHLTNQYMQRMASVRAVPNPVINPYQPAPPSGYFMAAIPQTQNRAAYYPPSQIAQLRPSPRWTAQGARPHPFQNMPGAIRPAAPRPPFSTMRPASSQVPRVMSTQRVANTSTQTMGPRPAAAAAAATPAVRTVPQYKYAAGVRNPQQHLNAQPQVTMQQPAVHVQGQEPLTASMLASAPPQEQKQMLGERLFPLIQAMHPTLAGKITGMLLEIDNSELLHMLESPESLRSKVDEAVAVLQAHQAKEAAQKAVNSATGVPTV
# Rce1 inhib = yeast Ras-converting enzyme inhibition; yeast membranes, quenched prenylated peptide cleavage fluorescence; 290,000 tested, 0.27% active; calls only;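 active = fall in fluorescence gain of 50% or more versus controls, with final raw signal at or below 3038400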;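 also: plate controls were neutral control wells for no effect and wells lacking membranes for full effect; tested at 10 µM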
# MT1-MMP act inh RFP = recorded beside MT1-MMP act inh, whose call it bears; RFP signal change, %; measured here: RFP expression control read;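 0 = vehicle wells; hits needed this value within 50% of zero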
# * = called active by the depositor; i = inactive; nt = no result given; + = active, no number.
# The first 4 entries as a preview:
SMILES,CSC inhib,HIV Env fusion,UUG fidelity,eIF4H inh,MT1-MMP act inh,MT1-MMP act inh RFP,PABP FP inh,Rce1 inhib
C=CCOc1c(Br)cc(/C=C(\C#N)C(N)=O)cc1OC,-7,-6,-23,-2,2,1,2,i
Cc1c(C(=O)N(Cc2cccc(Br)c2)C2CCS(=O)(=O)C2)oc2ccccc12 (stereo unspecified),-4,9,-2,-16,-5,-7,13,i
CC1=NN(C(=O)c2nn(C)cc2Br)C(O)(C(F)(F)F)C1 (stereo unspecified),-7,-21,nt,11,-6,-5,11,i
CN(/N=C/c1ccc2c(c1)OCO2)c1ccccc1,21,-65,-2,-4,-2,0,5,i

# The whole of this part, previewed entries included:
SMILES,CSC inhib,HIV Env fusion,UUG fidelity,eIF4H inh,MT1-MMP act inh,MT1-MMP act inh RFP,PABP FP inh,Rce1 inhib
C=CCOc1c(Br)cc(/C=C(\C#N)C(N)=O)cc1OC,-7,-6,-23,-2,2,1,2,i
Cc1c(C(=O)N(Cc2cccc(Br)c2)C2CCS(=O)(=O)C2)oc2ccccc12 (stereo unspecified),-4,9,-2,-16,-5,-7,13,i
CC1=NN(C(=O)c2nn(C)cc2Br)C(O)(C(F)(F)F)C1 (stereo unspecified),-7,-21,nt,11,-6,-5,11,i
CN(/N=C/c1ccc2c(c1)OCO2)c1ccccc1,21,-65,-2,-4,-2,0,5,i
CO/N=C/c1c(C(=O)OC)nn(-c2ccccc2)c1Cl,2,-10,nt,-6,-10,-3,-2,i
O=C1c2ccccc2C(Nc2ccc(S(=O)(=O)N3CCCCCC3)cc2)N1c1ccccn1 (stereo unspecified),-3,5,-5,-4,2,4,-2,i
CCOC(=O)C1CCCCN1C(=O)CCn1nnnc1CN1CCOCC1 (stereo unspecified),-4,1,-5,4,0,2,6,i
COc1cc(/C=N/Nc2ccc(Cl)c(C(=O)O)c2)ccc1OC(=O)c1cccs1,-1,1,4,-3,1,6,-4,nt
O=C1[C@H]2[C@@H](c3ccccc3)N[C@]3(CCCN(Cc4ccco4)C3=O)[C@H]2C(=O)N1Cc1ccccc1,nt,-70,-5,nt,1,2,nt,nt
COc1ccc(-c2nc(N)ncc2-c2csc(C)n2)c(O)c1,6,-56,-10,-1,-1,-3,-8,i
COc1ccccc1CN(C)C(=O)c1cccc(S(=O)(=O)N2CCc3ccccc3C2)c1,nt,17,8,nt,-5,0,nt,nt
CC1(C)O[C@@H]2[C@H](O1)[C@@H](COS(=O)(=O)O)O[C@H]2n1c(=S)[nH]c2c(=O)[nH]c(N)nc21,1,-7,-8,nt,-1,0,nt,nt
COc1cc(C(=O)NNC2=NC(C)(C)Cc3cc(C)c(C)cc32)cc(OC)c1OC,-9,22,nt,-4,4,-3,-10,i
O=S1(=O)CC(O)C(NCc2ccco2)C1 (stereo unspecified),4,-85,-19,8,-2,-1,-10,i
CC(CNS(=O)(=O)c1ccccc1)Sc1nncn1C (stereo unspecified),2,-9,-1,-3,-1,4,3,i
Nc1nc(Nc2ccccc2F)nc(NCc2ccccc2)c1[N+](=O)[O-],20,11,-17,-2,-1,-7,-12,i
CCOC(=O)N1CCN(C2=C(NS(=O)(=O)c3ccc(C)cc3)C(=O)c3ccccc3C2=O)CC1,-8,0,-3,-4,-8,2,8,i
CCOc1ccccc1NC(=O)c1ccc2c(c1)C(=O)N(CC(C)C)C2=O,9,12,-4,-2,3,-3,-3,i
O=C(CSCc1ccc(Cl)cc1)Nc1ccc(Br)cc1C(=O)O,14,6,-16,-1,0,1,6,i
O=C(NCCSCc1ccccc1)c1ccc(F)cc1,7,0,nt,4,1,5,-8,i
Cn1c(O)c(N=NC(=O)CNC(=O)c2ccco2)c2ccccc21,-2,4,nt,-6,-1,0,16,i
Brc1cccc(C2CC(c3ccccc3)n3nnnc3N2)c1 (stereo unspecified),2,-197,0,-5,1,0,-13,i
Cc1ccccc1NC(=O)CSc1ccc(-c2ccccn2)nn1,4,-9,-17,-12,2,0,-3,i
COc1ccc(CN(C(=O)c2oc3cc(C)ccc3c2C)C2CCS(=O)(=O)C2)cc1OC (stereo unspecified),nt,16,6,-15,1,0,0,i
Cc1cc(OCCCC(=O)NNC(=O)c2ccncc2)ccc1Cl,-4,16,-6,-9,-6,-1,7,i
CCc1cc(=O)oc2c(C)c(OCC(=O)NCCCn3ccnc3)ccc12,22,-8,-6,3,2,-2,6,i
O=C(NCc1ccccc1)c1ncn(Cc2ccccc2)c1C(=O)NCc1ccccc1,3,-1,-10,nt,3,1,nt,nt
Cc1ccc2c(c1)CCCN2C(=O)c1ccoc1C,-6,19,-3,-2,-7,-1,-1,i
CC1(C)C2CCC1(CS(=O)(=O)Nc1ccc(S(=O)(=O)N3CCCC3)cc1)C(=O)C2 (stereo unspecified),14,nt,nt,-1,3,9,-3,i
COc1ccccc1CNC(=O)CCS(=O)(=O)Cc1ccc(C)cc1,-5,-4,-8,-10,2,2,5,i
Cc1ccc(CNC(=O)C2CCC(CNc3c(N4CCOCC4)c(=O)c3=O)CC2)cc1 (stereo unspecified),-11,9,-14,-4,-1,3,-6,i
O=C(Nc1ccc(Cl)cc1)c1ccc(S(=O)(=O)N2CCOCC2)cc1,-13,2,-8,-6,5,-4,-2,i
CCOc1ccc(CCNC(=O)Cn2cccc2C(=O)c2ccccc2C)cc1OCC,-2,nt,-1,-4,-2,2,-5,i
Cc1ccccc1N(C(=O)c1snc(C(N)=O)c1N)C(C(=O)NCC1CCCO1)c1ccc(F)cc1 (stereo unspecified),-13,15,nt,-13,-8,-7,2,i
Cc1ccc(NC(=O)COC(=O)c2cc(Cl)cc(Cl)c2)c(Br)c1,2,3,-20,-3,5,4,15,i
CC1CN(c2ccc(NC(=O)c3ccco3)cc2C(=O)O)CC(C)O1 (stereo unspecified),-7,-14,nt,-5,5,3,-1,i
O=C(Nc1ccc(F)cc1)NC1CCCc2ccccc21 (stereo unspecified),7,-1,-9,-8,0,-3,3,i
CCOc1cc(CNc2ccccc2SC)ccc1O,13,nt,nt,-4,nt,nt,14,i
CC(=O)Nc1sc(C)c(C)c1C(=O)Nc1ccc(C)cc1,-17,-39,-10,-3,4,4,-8,i
COc1ccc(CNC(=O)c2cc3cccc(OC)c3oc2=N)cc1,-11,-8,-9,-6,2,1,-6,i
Cc1ccc(C)c(N2CCN(CC(=O)Nc3ccc4[nH]c(=O)[nH]c4c3)CC2)c1,6,-24,-14,-5,6,1,-8,i
Cc1cc(C)cc(NC(=O)C2CCN(c3nccs3)CC2)c1,2,nt,-6,-11,-1,-3,-3,i
CN(C)S(=O)(=O)c1cc(S(=O)(=O)N(C)C)c(Cl)cc1N,1,nt,-6,5,8,2,9,i
O=C(N/N=C\c1ccc(Br)o1)C1COc2ccccc2O1 (stereo unspecified),1,5,nt,45,5,1,6,i
CCN(CCn1cccn1)C(=O)C1CCC(=O)N(CC2CCCCC2)C1 (stereo unspecified),16,-3,-17,-1,0,3,-4,i
NC(=O)c1sc2nc(N3CCCCC3)c3c(c2c1N)CCCC3,-16,2,-16,-4,2,5,11,+
COc1cc(CCC(=O)OCC(=O)Nc2c(C)cccc2C(C)C)cc(OC)c1OC,-11,7,nt,0,-1,3,-4,i
O=C(COC(=O)Cc1c(F)cccc1Cl)NC(=O)Nc1ccccc1F,-9,3,0,nt,-1,2,nt,nt
Cc1ccc(-c2csc3ncnc(NCCC(=O)O)c23)cc1C,-19,2,-12,-4,4,-3,2,i
O=C(C1CCN(c2nnnn2-c2ccccc2)CC1)N1CCN(c2ccccc2)CC1,nt,-18,6,3,5,5,-5,i
CCC(=O)Nc1cccc(C(=O)OC)c1,-7,-7,-21,-2,0,1,-8,i
CCOc1ccc(S(=O)(=O)N2CCN(C(=O)c3oc4ccc(OC)cc4c3C)CC2)cc1,nt,-7,-2,nt,2,-6,nt,nt
COc1cccc(CNC(=O)c2cccc(S(=O)(=O)N3CCN(Cc4ccccc4)CC3)c2)c1,nt,-1,-1,nt,2,0,nt,nt
CCCCC(=O)Nc1ccc(NC(=O)c2cccnc2)cn1,nt,-8,-9,2,2,6,7,i
Nc1nc(SCc2ccc([N+](=O)[O-])cc2)c2ncn(C3OC(CO)C(O)C3O)c2n1 (stereo unspecified),-6,nt,-3,-3,0,-2,15,i
Cc1ccc(S(=O)(=O)NC(CC(C)C)C(=O)NCCCn2nc(C)cc2C)cc1 (stereo unspecified),nt,5,2,nt,0,1,nt,nt
Cc1cccc(NC(=O)CN(C)S(=O)(=O)c2cccc3cccnc23)c1C,-7,7,-1,-13,-3,-1,-6,i
CC1CN(C(=O)NCc2ccccc2)c2cc(Cl)ccc2O1 (stereo unspecified),3,5,-6,0,-3,-3,2,i
COC(=O)c1cc2ccsc2n1CC(=O)N1CCCc2ccccc21,nt,nt,6,-1,8,1,4,i
CCc1ccc(N2C(=O)Nc3ccc(Br)cc3C2(O)C(=O)NCCN(C)C)cc1 (stereo unspecified),-2,-17,-17,12,6,5,5,i

# Remaining list, next part
SMILES,CSC inhib,HIV Env fusion,UUG fidelity,eIF4H inh,MT1-MMP act inh,MT1-MMP act inh RFP,PABP FP inh,Rce1 inhib
CCOc1cc(/C=C(\C#N)C(N)=O)ccc1OS(=O)(=O)c1ccccc1,-11,4,-10,1,4,3,4,i
Cc1noc(C)c1CSCC(=O)N(C)CC(=O)Nc1ccccc1Cl,5,-2,-25,-9,0,0,11,i
CN(CC(=O)NCc1cccnc1)S(=O)(=O)c1ccc2c(c1)c(=O)n(C)c(=O)n2C,-6,3,-5,-3,-1,5,3,i
Cc1cc2cc(CCNC(=O)c3ccc(Br)o3)c(=O)[nH]c2cc1C,13,nt,6,-1,3,2,3,i
O=C1[C@H]2[C@@H](c3ccc(F)cc3)N3C(=O)N(c4ccccc4)C(=O)[C@@]3(Cc3ccc(Cl)cc3)[C@H]2C(=O)N1C1CCCCC1,4,100*,-8,4,-13,-13,-1,i
O=C(CSc1ncn(-c2ccccc2)n1)Nc1nc2ccccc2s1,-2,nt,nt,-9,5,3,1,i
Cc1ccc(-c2cc(C(F)(F)F)n3nc(C(=O)NCCCn4ccnc4)cc3n2)cc1C,29,37,-13,-7,11,-2,-3,i
COc1ccc(C(=O)CSc2nnc(CN3CCCCC3)n2-c2ccc(Cl)cc2)cc1OC,140*,6,6,-6,-7,0,-15,i
COc1ccccc1CC(NC(C)=O)C(=O)NC1CCN(S(=O)(=O)c2ccc(NC(C)=O)cc2)CC1 (stereo unspecified),nt,-23,0,2,4,3,-1,i
Cc1ccc(COc2cccc3c2CCN(Cc2ccc(F)cc2)C3=O)cc1,29,25,nt,-8,-11,-24,-2,i
Cc1ccc(C(=O)NC(=S)Nc2ccc(-c3ccc(CO)o3)cc2)cc1,16,-5,nt,1,-5,-8,11,i
COc1ccc(CNC(=O)CSc2nnc(C)c(=O)[nH]2)cc1,-6,-2,nt,-2,4,3,1,i
COc1ccccc1CNC(=O)c1ccc(OC(C)C)cc1,8,9,nt,4,4,-1,0,i
CC1=C(C)CC(C(=O)Nc2ccc(C(=O)N3CCOCC3)cc2)C(C(=O)O)C1 (stereo unspecified),9,18,-3,4,-4,-1,6,i
Cc1ccc(Cl)cc1N1CCN(C(=S)NCCc2ccccc2)CC1,25,12,nt,2,1,-1,-3,i
O=C(COc1cccnc1[N+](=O)[O-])NCCc1ccc(Cl)cc1Cl,-12,15,8,-3,-3,-1,-2,i
CN1CC(COCc2ccccc2)Oc2ccccc2S1(=O)=O (stereo unspecified),nt,-1,-26,nt,0,-3,nt,nt
CCOc1ccc(NC(=O)C2CCCN(S(=O)(=O)c3c(C)noc3C)C2)cc1 (stereo unspecified),3,6,5,-12,1,-4,8,i
c1ccc(-n2nnnc2-n2ccnc2)cc1,nt,nt,-11,-13,5,-2,-5,i
